StopGo RLuc: lowers the Renilla signal of an FMDV 2A StopGo reporter; HEK cells with a luciferase reporter of 2A StopGo recoding; hit rate 0.32% among 120,000; Potency, µM (doses to about 57.5 µM), without a hit: at the highest dose signal change, negative = less light; AID 1745857; active means well fitted falling curve with a large enough effect; inconclusive means small, poorly fitted or top-dose-only effect; inactive means no such curve, though single readings can be large or run the other way; also: nearly all actives have a fitted effect of over 55% in size; overnight with compound
StopGo FLuc: FMDV 2A StopGo reporter, firefly signal; HEK cells with a luciferase reporter of 2A StopGo recoding; Potency, µM (doses to about 57.5 µM), for inactives: at the highest dose signal change, negative = less light; hit rate 0.23% among 120,000; AID 1745856; active = well fitted falling curve with a large enough effect; inconclusive = small, poorly fitted or top-dose-only effect; inactive = no such curve, though single readings can be large or run the other way; also: nearly all actives have a fitted effect of over 60% in size; overnight with compound
Numbers without * were called inactive; ? = inconclusive; & = joins results of further samples; [ ] = another dose, or the depositor's remark. % is scaled to controls: 0 for no effect and ±100 for the full control effect; potency is read from the fitted curve at half-maximal effect.

SMILES	StopGo RLuc	StopGo FLuc
O=C(Cc1ccccc1)NCC(=O)NNC(=O)c1nn(-c2ccccc2)c(=O)c2ccccc12	-9%	17%
COC(=O)c1c(C)[nH]c(C(=O)CSc2cc(F)ccc2F)c1C	0%	158%[activator]
CCc1ccc(-n2c(=O)c3cccnc3n2CC(=O)NCc2ccc(F)cc2)cc1	2%	-9%
CC(C)c1ccc(OCC(=O)Nc2c(Cl)ccc3nsnc23)cc1	2%	13%
Cc1ccccc1OCc1ccc(-c2nc(C#N)c(N3CCCCC3)o2)o1	8%	22%
Nc1nccnc1C(=O)NCc1ccccc1OC(F)F	?	0%
O=C(Nc1ccc(-c2nc3ccccc3o2)cc1)c1ccc([N+](=O)[O-])o1	-4%	38%[activator]
CN(C(=O)c1cc(C2CC2)nc2ccccc12)c1ccccc1	11%	3%
CCN(CC)C(=O)c1sc(NC(=O)C(C)Sc2nc(-c3ccccc3)cc(C(F)(F)F)n2)c(C(=O)OC)c1C (stereo not given)	-3%	-10%
COc1cc2ccccc2cc1C(=O)N1CCN(c2nc3c(F)cccc3s2)CC1	-13%	-18%
CCc1cccc(NC(=O)c2cc(-c3ccccc3)n[nH]2)c1	3%	18%
COc1c(Br)cc(/C=C(\C#N)c2nc3ccccc3[nH]2)c(OC)c1Br	0%	33%[activator]
Oc1ccccc1-c1nc2cnccn2c1Nc1ccc(Cl)cc1	2%	-10%
CC1CCCN(S(=O)(=O)c2cc3cc(Cl)ccc3oc2=O)C1 (stereo not given)	-14%	-15%
CC(C)(C)NC(=O)c1ccc2c(c1)CCCN2C(=O)c1ccc(Cl)cc1	19%	7%

3 of these compounds, reformatted.
| SMILES | StopGo RLuc | StopGo FLuc |
| --- | --- | --- |
| O=C(Cc1ccccc1)NCC(=O)NNC(=O)c1nn(-c2ccccc2)c(=O)c2ccccc12 | -9% | 17% |
| COC(=O)c1c(C)[nH]c(C(=O)CSc2cc(F)ccc2F)c1C | 0% | 158%[activator] |
| CCc1ccc(-n2c(=O)c3cccnc3n2CC(=O)NCc2ccc(F)cc2)cc1 | 2% | -9% |

Back to the main list, starting six compounds before the break.
SMILES	StopGo RLuc	StopGo FLuc
COc1cc2ccccc2cc1C(=O)N1CCN(c2nc3c(F)cccc3s2)CC1	-13%	-18%
CCc1cccc(NC(=O)c2cc(-c3ccccc3)n[nH]2)c1	3%	18%
COc1c(Br)cc(/C=C(\C#N)c2nc3ccccc3[nH]2)c(OC)c1Br	0%	33%[activator]
Oc1ccccc1-c1nc2cnccn2c1Nc1ccc(Cl)cc1	2%	-10%
CC1CCCN(S(=O)(=O)c2cc3cc(Cl)ccc3oc2=O)C1 (stereo not given)	-14%	-15%
CC(C)(C)NC(=O)c1ccc2c(c1)CCCN2C(=O)c1ccc(Cl)cc1	19%	7%
COC(=O)CCCCC(CCSS/C(CCO)=C(\C)N(C=O)Cc1cnc(C)nc1N)SC(C)=O (stereo not given)	-11%	-15%
COc1ccc(CN(C)C(=O)NCc2ccc(S(=O)(=O)N3CCCCC3)cc2)cc1	-6%	-21%
COc1ccc(OC)c(NC(=O)Cn2cnc3sc(C)c(S(=O)(=O)N4CCN(c5ccccc5OC)CC4)c3c2=O)c1	-2%	-14%
COc1ccc(S(=O)(=O)NCCc2sc(-c3cccc(F)c3)nc2C)cc1	152%[activator]	6%
CCn1c(SC(C(=O)N2CCCC2)c2ccccc2)nnc1-c1ccccc1OC (stereo not given)	18%	-2%
COC(=O)CCOc1ccc(OCCC(=O)OC)c(N)c1	9%	43%[activator]
CN(C)c1cccc(C(=O)Nc2cccc(C#N)c2)c1	2%[1.06 µM]	64%[activator]
Cn1cnc2c(F)c(Nc3ccc(Br)cc3Cl)c(C(=O)NOCCO)cc21	-7%	-7%
O=C(Cc1n[nH]c(=O)c2ccccc12)N1CCN(CC(F)(F)F)CC1	-1%	8%
Nn1c(SCc2ncc(-c3ccccc3)o2)nnc1-c1ccc(Cl)cc1	12%	45%[activator]
CNC(=O)c1nn(CC(=O)N(C)C2CCCCC2)c(=O)c2ccccc12	-3%	2%
CCNC(=O)c1ccc(CN(c2ccccc2)S(C)(=O)=O)cc1	4%	5%
CCCN(C(=O)CCc1nc(-c2ccc(C)cc2)no1)c1ccc(OCC)cc1	-10%	28%
COc1ccc(S(=O)(=O)Nc2nc3ccccc3nc2Nc2ccccc2F)cc1	11%	-2%
COc1cc(/C=N/O)ccc1O	5%	9%
CCc1ccc(NC(=O)CSc2nc(C)c(C(=O)Nc3ccccc3)c(-c3ccc(OC)c(OC)c3)c2C#N)cc1	0%	-13%
COc1ccc(-c2nc(CN3CCC(C(=O)NCCN(CC(C)C)CC(C)C)CC3)c(C)o2)cc1OC	-18%	-4%
CC1CCN(C(=O)c2nc3nc(-c4ccco4)cc(C(F)(F)F)n3n2)CC1	6%	1%
O=S(=O)(c1cccc(F)c1)N1CCC(Oc2ccc(-n3cnnn3)cc2)CC1	?	22µM*
O=C(CCC1CCCCC1)NCc1ccc(Cl)cc1	10%	17%
Cc1nn(C)cc1-c1cc(C(F)F)c2c(C3CC3)nn(CC(=O)O)c2n1	11%	22%
N#Cc1nc(-c2ccc(COc3ccccc3)o2)oc1N1CCCCC1	84%[activator]	99%[activator]
Fc1ccc(CSc2nnc(-c3c[nH]c4ccccc34)n2C2CC2)c(Cl)c1	32%[activator]	-7%
COc1ccc(S(=O)(=O)N2CCC(n3c(C(F)(F)F)nc4cccnc43)CC2)cc1OC	-9%	6%
CC(C)Oc1ccc(C(=O)N2CCCCC2CCN2CCCCC2)cc1 (stereo not given)	-5%	-11%
COc1cc(/C=N/O)c(Br)c(Br)c1OC	-5%	-6%
Nc1ccc2nc(-c3ccc(O)cc3)sc2c1	64%[activator]	76%[activator]
CC(C)(C)OC(=O)N1CCC(c2c(C(=O)N3CCCCC3)cnn2-c2ccc(F)cc2F)CC1	3%	21%
Cc1ccc2oc(C(=O)Nc3cccc(-c4nc5ccccc5s4)c3)c(C)c2c1	-6%	129%[activator]
CC(=O)Nc1ccc(-c2nc(NC3CCCCC3)sc2C)cc1	5%	15%
CC(C)c1cccc(C(C)C)c1NC(=O)c1ccc2c(c1)CCC2	-3%	3%
CCCn1c(N)c(-c2csc(NC)n2)c(=O)n(C)c1=O	-4%	-3%
CCOc1ccc(NC(=O)COc2cc(C)cc(C)c2)c2cccnc12	-12%	-3%
Cc1ccc(C)c(NC(=O)c2oc(=O)c3ccccc3c2-c2ccccc2)c1	5%	-15%
O=C(O)CC(CNS(=O)(=O)c1ccc(Br)cc1)c1ccccc1 (stereo not given)	17%	15%
CCc1ccc(C2C(C#N)=C(N)OC3=C2S(=O)(=O)N(Cc2ccccc2C)c2ccccc23)cc1 (stereo not given)	30%[activator]	17%
N#Cc1nc(-c2ccco2)oc1N1CCN(C(=O)c2ccc(Cl)cc2Cl)CC1	-8%	-3%
O=C(CCCN1C(=O)C(c2ccccc2)Oc2cccnc21)Nc1ccccc1C(F)(F)F (stereo not given)	12%	-16%
CCCN1Cc2cccc(C(=O)Nc3c(Cl)cccc3Cl)c2C1=O	9%	-13%
C=CCNC(=S)N/N=C1/CCC=C1CCCCC	-11%	-18%
Cc1ccc(C)c(C(=O)CSc2nc(-c3ccccc3)nc3c2CCCC3)c1	11%	22%
CC(=O)c1cccc(NC(=O)C2CCN(S(=O)(=O)c3ccc4c(c3)CCCN4C(C)=O)CC2)c1	-1%	-5%
COc1ccc(-n2c(SCC(=O)NC3CCCCC3)nc3c([nH]c4ccccc43)c2=O)cc1	-18%	-7%
Cc1ccc(OCC(=O)Nc2ccc(S(=O)(=O)Nc3cc(C)nc(C)n3)cc2)c(Br)c1	26%	14%
CCCCCCCCCC(=O)O[C@H]1CC[C@H]2[C@@H]3CCC4=CC(=O)CC[C@@H]4[C@H]3CC[C@]12C	-9%	-13%[11.5 µM]
CCCCn1c(NCc2cc(Cl)ccc2O)nc2ccccc21	20%	-9%
COc1ccc(CCN[C@H]2CS(=O)(=O)C[C@@H]2S(=O)(=O)c2ccc(F)cc2)cc1OC	-2%	17%
Cc1cc(-c2c(C)n([O-])c(C)c(-c3ccccc3)[n+]2=O)ccc1Cl	20%	120%[activator]
COc1cc(C2CC(=O)Nc3cc4c(cc32)OCCO4)cc(OC)c1O (stereo not given)	40%[activator]	23%
O=C(CSc1nnc2ccccn12)N1CCN(S(=O)(=O)c2ccccc2)CC1	-5%	7%
Cc1ccc(Cl)cc1N1CCN(C(=O)c2cc(S(=O)(=O)N3CCCCCC3)cn2C)CC1	-1%	-11%
CC(C)C(=O)Nc1ccc(C(=O)NNC(=S)Nc2ccccc2)cc1	-7%	45%[activator]
COC(=O)c1c(NC(=O)c2ccc(C(C)(C)C)cc2)sc2c1CCC(C)C2 (stereo not given)	22%	8%
CCC(C(=O)NCc1ccc(OC)cc1)c1ccccc1 (stereo not given)	15%	14%
Cc1cccc(CNC(=O)c2cc3cc(S(=O)(=O)N4CCCCC4)ccc3n2C)c1	-6%	-14%
Cc1cccc(N2CCN(C(=O)CCc3c(C)nc4c(c3C)c(=O)n(C)c(=O)n4C)CC2)c1C	-13%	-16%
CCOc1ccccc1CNCc1c(C(=O)O)c(C)n(Cc2ccc(C)cc2)c1C	93%[activator]	-19%
COc1ccccc1NC(=O)CSc1nnc(NC(=O)Nc2ccc(C)cc2)s1	-3%	0%
O=C(Cn1nnc2sc(-c3ccccc3)cc2c1=O)Nc1ccccc1	8%	34%[activator]
CCOc1ccc(-n2nc3ccc(NC(=O)c4ccc(OC)c(Cl)c4)cc3n2)cc1	-1%	18%

The list goes on.
SMILES	StopGo RLuc	StopGo FLuc
CCCCNC(=O)c1ccc(NC(=O)Nc2ccccc2)cc1	11%	42%[activator]
S=c1sc(SCc2ccccc2)c(SCc2ccccc2)s1	-8%	?
COc1ccc(-n2nc3c(c2NC(=O)C(=O)NCc2ccccc2)CSC3)cc1	-11%	-17%
CSc1cccc(NC(=O)/C=C/c2cccc3ccccc23)c1	7%	0%
O=C(O)c1ccccc1-c1ccc(C(F)(F)F)cc1	-5%	-4%[11.5 µM]
O=C(NC12CC3CC(CC(C3)C1)C2)c1cccc(I)c1	49%[activator]	21%
CCc1ccc(-n2c(=O)c3sc4ccccc4c3n(CC(=O)NC3CCCC3)c2=O)cc1	0%	-3%
O=C(NC1(C(F)(F)F)C(=O)Nc2c1c(=O)[nH]c(=O)n2-c1ccccc1)c1ccccc1 (stereo not given)	-13%	-10%
Cc1[nH]c2ccccc2c1C(=O)C(=O)NC1CC(=O)N(c2ccccc2)C1 (stereo not given)	3%	-14%
COC(=O)c1sccc1S(=O)(=O)N(CC(=O)NCc1ccccc1)c1ccc(C)c(C)c1	354%[activator]	-19%
CCOC(=O)COc1ccc(/C=N/NC(=O)C(O)(c2ccccc2)c2ccccc2)cc1	16%	8%
O=C(O)/C=C/c1ccc(Cl)s1	0%	-3%
Cc1cccc(CN2CCC(CNC(=O)Cn3ncc4c([nH]c5ccc(C)cc54)c3=O)CC2)c1	-8%	6%
O=S(=O)(c1ccccc1)c1nnn2c1nc(NC1CCCCC1)c1sccc12	13%	-25%
COc1ccc(NS(=O)(=O)c2ccc3c(c2)CCCN3C(=O)C2CCC2)cc1OC	?	?
COc1ccc(C)cc1NC(=O)Cn1c(=O)oc2cc(S(=O)(=O)N3CCCCC3)ccc21	13%	11%
O=C(c1ccccc1)c1ccc(O)cc1	20%	111%[activator]
O=C(CSc1nc(-c2ccccc2)cc(=O)[nH]1)Nc1ccc(Cl)c(Cl)c1	-7%	1%
Cc1ccc(NC(=O)c2nc3ccccc3nc2N2CCOCC2)c(C)c1	2%	-3%
CN(C)c1ncnc2scc(-c3ccc(F)cc3)c12	-10%	-2%
CN(C)S(=O)(=O)N(CC(=O)NCCSCc1ccccc1Cl)c1ccccc1	4%	-11%
CC(C)c1ccc(CN(Cc2ccco2)c2cnc(S(C)(=O)=O)nc2C(=O)Nc2ccc(F)cc2)cc1	-13%	-18%
Cc1cccc(C(=O)OC(C)C(=O)c2ccc(F)cc2)c1O (stereo not given)	2%	0%
CCCCCCn1c(SCC(N)=O)nc2c1c(=O)[nH]c(=O)n2C	104%[activator]	0%
Cc1ccc(N/N=C/c2cccc(/C=N/Nc3ccc(C)c(Cl)c3)c2)cc1Cl	7%	114%[activator]
CCOc1ccc(C2C(C(N)=O)=C(C)Nc3nc(-c4ccc(OC)cc4)nn32)cc1 (stereo not given)	-10%	-8%
COC(=O)C1CN(C2CC2)CCS(=O)(=O)N1Cc1cn(Cc2ccc(OC)cc2)nn1 (stereo not given)	-5%	-3%
CN1CCN(CCNC(=O)CCn2ccc3cc(S(=O)(=O)N4CCCCC4)ccc32)CC1	27%	-6%
CCOc1ccc(C(=O)Nc2ccc3oc(-c4ccncc4)nc3c2)cc1[N+](=O)[O-]	-9%	10%
CCc1ccc(NC(=O)CNC(=O)Cn2c(C)cc3ccccc3c2=O)cc1	-4%	7%
O=c1[nH]c(N2CCN(c3ccccc3F)CC2)nc2c1CCC2	11%	23%
O=C(Cc1ccccc1)c1ccccc1NC(=O)C1CCCCC1	15%	21%
Cc1ccc(NC(=O)c2c(C)oc3ncn(C)c(=O)c23)cc1F	-16%	-24%
COc1ccc(-c2nnc(SC(C(=O)N3CCOCC3)c3ccccc3)n2C)cc1 (stereo not given)	35%[activator]	49%[activator]
CCC(NC(=O)C(C)(C)C)c1ccccc1 (stereo not given)	-3%	14%
Cc1ccc(C(=O)NCCSc2c[nH]c3ccccc23)cc1C	9%&-3%	19%&0%
CC(C)COc1ccc(C(=O)Nc2ccc(N3CCN(S(C)(=O)=O)CC3)cc2)cc1	18%	20%
COc1ccc(NC(=O)/C(C#N)=C/c2ccc(OCc3cc(=O)n4nc(C)sc4n3)cc2)cc1	-12%	-10%
COc1ccc(-n2nnnc2C2CCN(S(=O)(=O)c3cc(Cl)ccc3OC)CC2)cc1	?	?

Compound activity from PubChem BioAssay.

A portion of the library; the hit share may differ from the screen's.
